Screening results deposited in PubChem by several laboratories.
MT1-MMP reporter: MT1-MMP gene expression reporter suppression – cell-based, luciferase reporter, luminescence (AID 618). MT1-MMP promoter luciferase reporter cells, luminescence. calls from a first round at 10 µM; hits with a dose series show EC50 in µM. 0.62% of 87,000 active;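 active = over half of the reporter light lost at 10 µM or EC50 under 50 µM; inactive = the rest and hits that failed the dose series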;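 note: actives suppress MT1-MMP promoter-driven transcription so potencies describe inhibitors; HT1080 fibrosarcoma cells; overnight exposure; toxic or luciferase-blocking compounds were not removed from the actives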
WNV protease inh: blocks West Nile virus NS2B-NS3 protease activity. P06935. WNV NS2B-NS3 protease, fluorogenic substrate Ex360/Em465; hits give low values. z-score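 (tested at a level between 10 and 100 µM)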. 0.18% of 65,000 active;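 active = z-score at -3 or under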;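 note: score is relative to mean and spread of the compound wells of a plate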
Target sequence (P06935 1371-1501 limits assumed): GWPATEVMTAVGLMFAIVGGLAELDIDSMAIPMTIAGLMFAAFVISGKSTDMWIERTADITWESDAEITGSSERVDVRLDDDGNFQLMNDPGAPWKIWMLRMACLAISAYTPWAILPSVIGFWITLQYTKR
Target sequence (P06935 1502-1679 limits assumed): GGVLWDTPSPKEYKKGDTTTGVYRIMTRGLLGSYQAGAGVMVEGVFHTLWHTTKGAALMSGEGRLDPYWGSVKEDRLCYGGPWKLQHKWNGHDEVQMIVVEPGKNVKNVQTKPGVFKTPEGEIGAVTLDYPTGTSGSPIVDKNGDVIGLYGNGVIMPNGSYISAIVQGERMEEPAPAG
Hsc70 ATP site: Hsc70 inhibitors, probe displacement, primary screen, biochemical, fluorescence polarization (AID 568). displacement, % at 20 µM, or IC50 in µM where a hit was titrated. 83,000 tested, under 10 active. Hsc70 fluorescence polarization, probe displacement; higher % means a stronger effect; strong numbers were not always called active;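 active = displacement above 50% without optical interference and an IC50 on retest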;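 note: ATPase domain with a fluorescein-tagged ATP probe; 0% = vehicle and 100% = excess ADP; read after one hour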
* = called active by the depositor; i = inactive; nt = no result given.

Values run as follows: MT1-MMP reporter | WNV protease inh | Hsc70 ATP site
CC1CN(S(=O)(=O)c2cccc(C(=O)OCC(=O)c3cccs3)c2)CC(C)O1 (stereo not given)
  i | nt | 1.7%
CCc1ccc(OCC(=O)Nc2ncc3c(n2)CC(C)(C)CC3=O)cc1
  i | -0.4 | 0.5%
COC(=O)Cc1[nH]n(-c2nc3ccccc3s2)c(=O)c1C(C)=O
  i | nt | -4.6%
CC(C)CSc1nc2c(c(=O)[nH]c(=O)n2C)n1CCc1ccccc1
  i | 0.8 | -1.0%
C(=NC12CN3CN(CN(C3)C1)C2)c1ccc2c(c1)OCO2
  i | 0.51 | -3.9%
O=C(O)c1cccc(-n2cccc2/C=N/O)c1
  i | 2.2 | -2.8%
CCOc1ccc(OCC)c(S(=O)(=O)NCc2ccc3c(c2)OCO3)c1
  i | -1.4 | -5.0%
CCOc1cc(C2C(C#N)=C(N)SC(N)=C2C#N)ccc1OCCN1CCOCC1
  i | -0.8 | -102%
Nc1nc(N)c2sc3nc(C(F)(F)F)cc(C(F)(F)F)c3c2n1
  i | nt | 1.1%
Nc1nc(-c2ccco2)nn1C(=O)c1ccc(Cl)cc1
  i | nt | -2.1%
CC1CCCC(C)N1C(=O)CSc1nc2ncnc(N)c2[nH]1 (stereo not given)
  i | -1.1 | 2.9%
Cc1cccc(S(=O)(=O)N(CC(=O)Nc2ccccc2C)Cc2ccco2)c1
  i | nt | 4.0%
COc1ccc(Nc2nc(C)nc3c2nnn3Cc2ccccc2)cc1OC
  i | nt | -2.5%
Cc1nc(SCC(=O)NCCc2ccccc2)c2oc3ccccc3c2n1
  i | nt | -0.2%
CCc1ccc(-c2nc(-c3ccncc3)no2)cc1
  i | -0.86 | -1.6%
CCCn1c(=O)c2ccccc2n2c(SCCOc3ccc(Cl)cc3)nnc12
  i | -0.74 | 0.0%
COc1ccc(-c2cc(C(=O)NCc3cccnc3)no2)cc1
  i | 0.34 | -4.4%
COc1ccc(NC(=O)C2CCN(C(=O)c3ccccc3)CC2)c(OC)c1
  i | -1.5 | -0.9%
CO/N=C(\C)c1ncc(C(F)(F)F)cc1N1CCOCC1
  i | nt | -1.4%
CCCN(CCC)C(=O)COc1cc(=O)n(CC)c2ccccc12
  i | 0.004 | 6.8%
O=C1CSc2ccccc2N1Cc1ccc(F)cc1
  i | 0.2 | -1.6%
CCNC(=O)C1CC(=O)N(Cc2ccc(F)cc2)C(=Nc2ccc(OC)cc2)S1 (stereo not given)
  i | -0.76 | 2.4%
COc1ccc(-c2nnc(SCc3nnc(-c4ccccc4)o3)n2C)cc1OC
  i | -1.4 | -0.2%
O=C(c1ccccc1F)N(Cc1ccccc1)C1CCS(=O)(=O)C1 (stereo not given)
  i | -0.57 | 3.5%
Cc1cc(=O)oc(C)c1C(=O)NCc1ccc(F)cc1
  i | 0.42 | -4.0%
CSc1ncccc1C(=O)OCC(=O)NC(=O)NCCC(C)C
  i | -1.3 | 5.3%
Cc1cccc(Cn2c(C(=O)OC(C)C)cc3c2ccn3C)c1
  i | nt | 1.4%
COc1cccc(-c2cc3c(-n4cccc4)ncnc3o2)c1
  i | nt | 1.7%
O=C(CN(C(=O)CNS(=O)(=O)c1ccccc1)c1ccc2c(c1)OCCO2)NCc1ccco1
  i | 0.16 | 4.2%
Cc1ccc(N2C(=O)c3ccc(C(=O)N4CCOCC4)cc3C2=O)cc1C
  i | nt | 3.0%
COc1ccc(S(=O)(=O)N2CCCC(C(=O)NCc3ccccn3)C2)cc1 (stereo not given)
  i | 0.03 | -8.0%
c1ccc(-c2noc(-c3cccs3)n2)nc1
  i | -0.18 | -0.9%
COc1ccc(OCC(O)Cn2c(=N)n(Cc3ccccc3)c3ccccc32)cc1 (stereo not given)
  i | -1.1 | 8.5%
COC(=O)c1c(NC(=O)CN2CCCC(C)C2)c2c(C)cccc2n1C (stereo not given)
  i | 1.1 | -4.0%
CCN(Cc1ccccc1)C(c1cccs1)c1nnnn1C1CCCCC1 (stereo not given)
  i | 0.63 | -2.2%
CC(=O)C1=C(C)N(Cc2ccco2)C(=O)C1(NC(=O)C1CCCCC1)C(F)(F)F (stereo not given)
  i | nt | 3.2%
CC1=CC(C)(C)N(C)C(=O)N1c1ccc(Cl)cc1
  i | nt | 5.3%
Cc1cc(Cl)ccc1OCC(=O)OC(C)C(=O)N(C)C (stereo not given)
  i | 0.49 | 0.2%
COC(=O)c1[nH]c2cc(OC)c(OC)cc2c1NC(=O)Oc1ccccc1
  i | nt | 3.4%
O=C(Nc1ccccc1)N1CCN(c2ccc(F)cc2)CC1
  i | nt | -0.2%
Cc1cccc(NC(=O)c2cc(N3CCOCC3)nc3ccccc23)c1
  i | -1.6 | -3.5%
Cc1nn(Cc2ccccc2)c2c1C(c1cccc(Cl)c1)C(C#N)=C(N)O2 (stereo not given)
  i | nt | -2.6%
CS(=O)(=O)N(CC(=O)NCc1ccccn1)Cc1ccc(Cl)cc1
  i | 1.3 | 5.0%
COc1ccccc1C1CC(=O)NC(C)=C1C(=O)OCC1CCCO1 (stereo not given)
  i | 1.5 | -2.4%
Cc1ccc(NC(=O)CSc2nnc(-c3ccncc3)n2C)cc1C
  i | 0.92 | 3.7%
Cc1nnc(SCc2cccc(Oc3ccccc3)c2)n1N
  i | -0.62 | -2.1%
CCOC(=O)N1CCC(NC(=O)C2CCCCN2S(=O)(=O)c2ccc(F)cc2)CC1 (stereo not given)
  i | -0.52 | 1.6%
Brc1ccc(OCCOCCN2CCOCC2)cc1
  i | -0.34 | -2.6%
Nn1c(Cc2cccc3ccccc23)nnc1SCC(=O)NC1CCS(=O)(=O)C1 (stereo not given)
  i | -0.21 | -3.9%
CCOC(=O)COc1nc(C)c(Br)c(OC)n1
  i | -0.34 | -1.2%

(next part)
Values run as follows: MT1-MMP reporter | WNV protease inh | Hsc70 ATP site
Cc1cc2cc(CN(Cc3ccc4c(c3)OCO4)C(=O)c3ccco3)c(=O)[nH]c2cc1C
  i | 0.32 | 0.4%
COc1cc2c(cc1OC)-c1nnnn1C(C)(C)C2
  i | -0.45 | -10%
CCCN(CCC)c1nc(N)c(C#N)c(CC#N)c1C#N
  i | nt | -7.7%
CC1(C)Cc2cccc(OCC(=O)N3CCN(S(=O)(=O)c4ccccc4)CC3)c2O1
  i | -0.27 | -0.4%
N#CC1=C(N)NC(SCC(=O)c2ccc(Cl)cc2)=C(C#N)C12CCCC2
  i | nt | 0.8%
CCOc1ccc(C2c3c(oc4ccccc4c3=O)C(=O)N2CCCN2CCOCC2)cc1 (stereo not given)
  i | 0.89 | 0.5%
COCCN1C(=O)C(=O)/C(=C(/O)c2ccc(OC(C)C)cc2)C1c1cccnc1 (stereo not given)
  i | 0.04 | -5.7%
COc1ccccc1NC(=O)CCC(=O)Nc1ccccc1OC
  i | 1.6 | 1.9%
CCc1nc2sc3c(c2c(=O)o1)CCCC3
  i | 0.48 | 5.6%
CC(C)c1nc2oc3c(NCc4ccccn4)ncnc3c2c2c1COC(C)(C)C2
  i | -0.13 | -5.1%
COc1ccc(CCNC(=O)CSc2cc(=O)[nH]c(N)n2)cc1OC
  i | 1.4 | 10%
COc1ccc(-c2n[nH]c(C)c2-c2cnn(-c3ccccc3)c2)c(O)c1
  i | -0.41 | 3.6%
Cc1cccc(N2CCN(C(c3ccccc3)c3nnnn3C(C)(C)C)CC2)c1C (stereo not given)
  i | nt | 7.3%
CCCSc1nnc(Cn2c(=O)sc3ccccc32)n1-c1ccccc1
  i | 0.83 | -3.8%
CCCCN1CC(COc2ccccc2)OC1=O (stereo not given)
  i | 1.7 | -6.2%
O=C(c1ccco1)N1CCN(C(c2coc3ccc(Cl)cc3c2=O)c2nnnn2C2CCCC2)CC1 (stereo not given)
  i | nt | -2.6%
Cc1cc(/N=C/C=C2\N(C)c3ccccc3C2(C)C)n(CCC#N)n1
  i | -0.03 | -2.8%
O=C(COc1ccc(S(=O)(=O)N2CCCC2)cc1Cl)N1CCN(c2ccccc2)CC1
  i | -0.02 | 6.7%
COc1cc2c(cc1OC)C(c1ccsc1)CC(=O)N2 (stereo not given)
  i | 1.1 | -0.3%
COc1ccc2c(c1OC)C(=O)OC2Nc1ncc(Br)cc1Br (stereo not given)
  i | nt | 3.6%
CC(=O)N1CCN(c2ccc(NC(=O)c3ccc4c(c3)OCCO4)cc2)CC1
  i | 1.1 | -3.7%
CC(C)Cn1c(SCC(=O)N2CCCCC2)nc2ccccc2c1=O
  i | nt | 3.4%
Cc1ccc2c(c1)c1c(n2CC(O)Cn2nc(C)c(Br)c2C)CCCC1 (stereo not given)
  i | nt | -1.3%
CC1CCN(C(=O)Nc2cccc(NC(=O)N3CCC(C)CC3)c2)CC1
  i | -0.25 | -0.4%
COc1ccccc1N=C1SC(C(=O)Nc2ccc(F)cc2)CC(=O)N1C (stereo not given)
  i | nt | -25%
C1CCN(Cc2nnnn2C2CCCC2)CC1
  i | nt | 4.6%
Cn1c(=O)c2cc(NC(=O)c3ccccc3Cl)c(=O)oc2n(C)c1=O
  i | 0.72 | -1.0%
Cn1c(CNc2ccccc2O)nc2ccccc21
  i | 1.6 | 2.0%
CC(C)COc1ccc(C(=O)OCCN2CCOCC2)cc1
  i | 0.21 | -0.2%
Nc1c(NCCCN2CCOCC2)c2ccccc2oc1=O
  i | 0.36 | 4.9%
CCOC(=O)C1CCN(S(=O)(=O)c2cnc[nH]2)CC1
  i | 0.6 | 8.9%
Nn1c(SCC(=O)Nc2ccc3c(c2)OCO3)nnc1C1CCCCC1
  i | -1 | -1.9%
Cc1nc2ccccc2c2c1C(=O)N(C1CCCCCCC1)C2=O
  i | nt | 0.7%
COCCCNC(=O)CS(=O)Cc1nc(-c2ccccc2C)oc1C (stereo not given)
  i | 1.7 | 0.1%
Cc1cc(C)n2nc(SCC(=O)Nc3ccc(F)cc3)nc2n1
  i | 0.57 | 2.0%
Cn1c(=O)n(C)c2cc(CNc3ccc(N4CCOCC4)c(C(=O)O)c3)ccc21
  i | -0.28 | 7.2%
CSc1nc(N)c(C#N)c(-c2ccc(Cl)cc2)c1C#N
  i | 0.53 | 1.2%
Cc1cccc(NC(=O)CSc2nnc(-c3cnccn3)n2Cc2ccco2)c1
  i | nt | 3.6%
O=C(CCn1nnc2ccccc21)N1CCC(O)(c2cccc(F)c2)CC1
  i | 0.3 | 2.4%
Cc1cc(NC(=O)CSc2nc3sc(C)c(C)c3c(=O)n2C2CCCC2)no1
  i | nt | -3.7%

A second format for 5 compounds above:
mol	MT1-MMP reporter	WNV protease inh	Hsc70 ATP site
Nn1c(SCC(=O)Nc2ccc3c(c2)OCO3)nnc1C1CCCCC1	i	-1	-1.9%
Cc1nc2ccccc2c2c1C(=O)N(C1CCCCCCC1)C2=O	i	nt	0.7%
COCCCNC(=O)CS(=O)Cc1nc(-c2ccccc2C)oc1C (stereo not given)	i	1.7	0.1%
Cc1cc(C)n2nc(SCC(=O)Nc3ccc(F)cc3)nc2n1	i	0.57	2.0%
Cn1c(=O)n(C)c2cc(CNc3ccc(N4CCOCC4)c(C(=O)O)c3)ccc21	i	-0.28	7.2%

Continuation:
Values run as follows: MT1-MMP reporter | WNV protease inh | Hsc70 ATP site
COc1cccc(-c2n[nH]c(=S)n2Cc2ccco2)c1OC
  i | -0.18 | 6.1%
Cc1ccc(S(=O)(=O)N2CCOCC2)cc1C(=O)Nc1ccccn1
  i | -0.12 | 0.7%
O=C(Cn1c(C(=O)NCc2ccco2)cc2sccc21)c1ccccc1
  i | 0.49 | 0.7%
CCC1(C)Cc2c(sc3nc(NC)n(C)c(=O)c23)CO1 (stereo not given)
  i | -1.5 | 0.5%
Cn1c(=O)c2c(-c3ccccc3)n(N3CCOCC3)cc2n(C)c1=O
  i | 0.87 | -3.5%
C=CCN1C(=O)CN=C1Nc1ccccc1
  i | nt | 1.2%
C=CCn1c(SCC(=O)Nc2ccc3c(c2)OCO3)nnc1-c1ccccc1O
  i | -0.13 | 0.8%
Cc1nc(-n2ncc(C#N)c2N)c2c3c(sc2n1)CCC3
  i | nt | -6.1%
O=c1ccn([C@@H]2O[C@H](CO)[C@@H](O)[C@H]2O)c(=O)[nH]1
  i | nt | 1.0%
COc1ccc(OC)c(CNc2ccc(F)c(Cl)c2)c1
  i | nt | 2.1%
CCCn1nnnc1SCC(=O)Nc1cccc(NC(=O)c2ccco2)c1
  i | nt | -0.4%
CCCCCC1CC(CC(C)C(=O)Nc2nncs2)C(=O)O1 (stereo not given)
  i | 0.46 | 2.2%
CCCCN(CCCC)c1cn[nH]c(=O)c1Cl
  i | nt | 5.2%
CCOC(=O)c1c(C)[nH]c(C(=O)O)c1C
  i | 3 | -2.3%
O=C(CC1CC2CCC1C2)NCc1cccs1 (stereo not given)
  i | 0.57 | -0.1%

Compounds shown so far that have a COOH group, in the order listed:
Values run as follows: MT1-MMP reporter | WNV protease inh | Hsc70 ATP site
O=C(O)c1cccc(-n2cccc2/C=N/O)c1
  i | 2.2 | -2.8%
Cn1c(=O)n(C)c2cc(CNc3ccc(N4CCOCC4)c(C(=O)O)c3)ccc21
  i | -0.28 | 7.2%
CCOC(=O)c1c(C)[nH]c(C(=O)O)c1C
  i | 3 | -2.3%

Random draw from the library; overall some 0.8% were active at least once.
